Screens (PubChem)
HCMV NEC inh: inhibitors of HCMV UL50-UL53 interaction, biochemical, HTRF. actives 0.15% (n = 190,000). HCMV UL50-UL53 nuclear egress complex (human cytomegalovirus). inhibition, % (concentration not given with the values). normalized percent inhibition;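 active = both replicates at 50% or more, plus weaker picks with an unusually low signal ratio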;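 note: stock transfer was 100 nL into about 20 µL; 0% = negative control wells and 100% = wells with untagged competitor protein; inactives centre near -12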
GIV-Gai inh: inhibitors of GIV peptide binding to Galpha-i3, primary screen, biochemical, fluorescence polarization, FITC-GIV GBA peptide, rat Galphai3 | Guanine nucleotide-binding protein G(i) subunit alpha-3 (Rattus norvegicus), P08753 | 90 min; active compounds read low; scaled: aluminum fluoride 0%, vehicle 100% | percent of control (FP), % (test concentration not listed) | actives 0.42% (n = 210,000);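 active = replicate mean at 85% of control or lower, very high polarization wells dropped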;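 note: lower values mean more displacement of the GIV peptide from Galpha-i3; wells of about 15 µL received 100 nL stock; the first replicate is given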
Target sequence (P08753 whole entry, looked up): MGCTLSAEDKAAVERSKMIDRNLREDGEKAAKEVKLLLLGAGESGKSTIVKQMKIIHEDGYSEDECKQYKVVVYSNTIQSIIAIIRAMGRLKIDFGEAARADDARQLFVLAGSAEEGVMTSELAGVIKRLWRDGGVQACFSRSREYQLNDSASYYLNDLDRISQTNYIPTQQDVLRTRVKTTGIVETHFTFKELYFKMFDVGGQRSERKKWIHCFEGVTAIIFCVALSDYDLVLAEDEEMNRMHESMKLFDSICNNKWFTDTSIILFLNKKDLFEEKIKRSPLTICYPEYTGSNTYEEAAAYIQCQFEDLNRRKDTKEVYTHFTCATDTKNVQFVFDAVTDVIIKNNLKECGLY
Sa growth 42C: S. aureus growth inhibition at 42 and 30 °C, primary screen, LtaS inhibitor project, RN4220, two temperatures; OD600, 20 h, 42 °C; active compounds read low; actives 0.53% (n = 170,000); relative growth, % (concentration not given with the values);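 active = growth at 42 °C up to 50% and 20 or more points under that at 30 °C, or under 10% at both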;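 note: 300 nL library stock went into each well; scaled to the means of positive and negative controls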
Sa growth 42C second temp: recorded beside Sa growth 42C, whose call it bears; relative growth, %; measured here: growth at 30 °C;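 optical density after 20 h as mean of two plates; 100% = untreated growth and lower means inhibition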
* hit, by the source's call; nt = not tested or not shown; & = joins results of further samples.

SMILES	HCMV NEC inh	GIV-Gai inh	Sa growth 42C	Sa growth 42C second temp
COc1ccc(C[N+](C)(C)C2CCCCC2)cc1OC	nt	97	103	86
O=C1Nc2ccccc2S/C1=C\C(=O)N1CCOCC1	-34	106	109	94
COc1ccc(OC)c(CCNC(=O)c2sc3nc4n(c(=O)c3c2C)CCCC4)c1	-22	95	101	74
Cc1ccc(COc2coc(CN3CCc4ccccc43)cc2=O)cc1	5	108	62	56
CCn1c(-n2nc(C)cc2N)nc2ccccc21	-26	nt	105	75
CCCCN1C(=O)CC(N2CCN(c3ccc(F)cc3)CC2)C1=O (stereo not given)	-15	106	103	100
CCCN1C(=O)/C(=C/c2ccc(-c3cccc(C(F)(F)F)c3)o2)NC1=S	-30	187	85	58
CC1C(=O)Nc2ccccc2N1C(=O)C1CC1 (stereo not given)	-6	109	nt	nt
CSc1ncc(Cl)c(C(=O)Nc2ccc(S(=O)(=O)N3CCCC(C)C3)cc2)n1 (stereo not given)	-19	97	111	83
O=C(/C=C/N1CCOCC1)c1cc2ccccc2o1	-68	108	97	81
CNC(=S)NCCCc1ccccc1	-3	102	79	96
O=c1[nH]c(=S)c2c(n1Cc1ccco1)CCC2	-3	nt	84	100
CCc1nc(NCCO)c(C#N)c2c1CCCC2	-6	101	95	91
CCS(=O)(=O)N1CCc2cc(C(=O)COC(=O)c3cc(Cl)ccc3O)ccc21	-6	nt	63	97
O=C(Cn1cnc2nc3c(cc2c1=O)CCCC3)Nc1ccc(F)cc1Cl	-16	100&108	106	89
O=C(COc1ccc(Cl)cc1Cl)Nc1ccc(N2CCOCC2)cc1	-34	nt	106	74
O=C1/C(=C/c2ccc3nccnc3c2)CCC/C1=C\c1ccc2nccnc2c1	nt	100	104	89
O=C1CCCc2cc(S(=O)(=O)N3CCCC(C(=O)NCc4cccnc4)C3)ccc2N1 (stereo not given)	0	99	nt	nt
CC(=O)N1CCCSc2ccc(S(=O)(=O)Nc3ccc4c(c3)OCO4)cc21	-2	102	nt	nt
O=c1c2cc(Cl)ccc2oc2cc(O)cc(O)c12	-13	106	nt	nt
Cc1ccccc1OCC(=O)NC1CC2CCC1C2 (stereo not given)	-2	96	112	89
CN1C(=O)C(c2c(-c3ccc(Cl)cc3)[nH]c3c2c(=O)n(C)c(=O)n3C)c2ccccc21 (stereo not given)	7	109	nt	nt
CCOc1ccc(S(=O)(=O)N2CCN=C2c2ccccc2)cc1C	-14	102	107	81
N=C(N)SCCCc1nc2ccccc2[nH]1	-8	100	80	86
COc1ccc(C2Nc3ccccc3NC3=C2C(=O)CC(c2ccc(Cl)cc2)C3)c(OC)c1OC (stereo not given)	-26	97	nt	nt
New compounds follow:
SMILES	HCMV NEC inh	GIV-Gai inh	Sa growth 42C	Sa growth 42C second temp
CC(=O)N1CCN(CC(=O)N(Cc2ccccc2)c2cccc(C)c2)CC1	-29	nt	80	90
COc1ccc(C2CC(C(F)(F)F)n3nc(C(=O)O)cc3N2)cc1 (stereo not given)	-6	97	106	98
CCN(CC1COc2ccccc2O1)C(=O)C1CCN(C(=O)c2ccccc2C)CC1 (stereo not given)	-24	nt	94	92
COc1ccc(-c2nc(SCC(=O)NCc3ccco3)c(-c3ccccc3)[nH]2)cc1	-22	97	92	85
CCCC(C)Nc1oc(-c2ccc(Cl)cc2)nc1C#N (stereo not given)	-10	nt	85	93
Cc1ccc(C(=O)Nc2ccc3nc(N4CCN(c5ccccc5)CC4)cc(C(=O)O)c3c2)cc1	-25	102	nt	nt
CCCCNc1nc2c(-c3ccccc3)nnn2c2ccccc12	-27	105	nt	nt
CC1CCN(S(=O)(=O)c2cc(C(=O)NCCc3ccccc3)n(C)c2)CC1	nt	105	110	104
Cc1ccccc1-c1nc(CSCC(=O)N2CCC(C(N)=O)CC2)c(C)o1	2	102	106	80
CCOc1cccc2c1Oc1[nH]n(-c3ccc(CC)cc3)c(=O)c1C2	-32	101	nt	nt
CC(NC(=O)c1cc(=O)c2ccccc2o1)C(c1ccccc1)N1CCOCC1 (stereo not given)	-48	nt	82	91
COc1ccccc1/C=C/C(=O)Nc1nc2n(n1)C(c1ccc(F)cc1)C=C(c1ccccc1)N2 (stereo not given)	-37	102	104	71
Cc1ccc(NC(=O)C(=O)NCC(c2cccnc2)N2CCN(Cc3ccccc3)CC2)cc1Cl (stereo not given)	-10	99	101	92
O=C(NCc1ccccc1)c1cnn2c(C(F)(F)F)cc(-c3ccco3)nc12	nt	119	90	46
Cc1ccc(OCCn2c(=O)sc3ccccc32)cc1	-27	106	91	98
O=CNc1cccc(O)c1	8	nt	107	92
CCCN1CCC(NC(=S)NCCOC)CC1	-14	99	100	91
CCOC(=O)c1cnc(SCC)nc1N	21	106	nt	nt
Cc1cc(N2CCC(C)CC2)n2nc(Cc3ccccc3)nc2n1	-12	97	nt	nt
Cc1ccc(Cl)cc1NC(=O)CN1C(=O)c2cccc3cccc1c23	-23	101	108	70
COc1ccc(NC(=O)c2c(NCc3cccs3)sc3c2CCCCC3)c(OC)c1	nt	130	74	77
CCN(CC)c1ccc(C2CC(c3c(O)n(C)c(=S)n(C)c3=O)=NN2C(C)=O)cc1 (stereo not given)	18	108	nt	nt
COc1ccc(NC(=S)SC)cc1OC	-4	nt	102	77
O=C(CCc1nc2sc3c(c2c(=O)[nH]1)CCCC3)NC1CCCC1	nt	101	87	88
C=CCSc1ncnc2c1cnn2-c1ccccc1	-11	102	85	84
Additional structures:
SMILES	HCMV NEC inh	GIV-Gai inh	Sa growth 42C	Sa growth 42C second temp
O=c1n(CN2CCOCC2)c2ccccc2n1CN1CCOCC1	-43	nt	95	85
Cc1cccc(-c2nc3nc(C)cc(NCCO)n3n2)c1	-20	103	nt	nt
CC(=O)Nc1ccc(C(=S)NCCCO)cc1	-23	nt	78	83
CCN1C(C(=O)c2ccccc2)=C(OC(=O)COc2ccccc2)c2ccccc2S1(=O)=O	-13	103	77	72
CCN(Cc1ccccc1)C(=O)c1nn(C)c(=O)c2ccccc12	-2	nt	100	94
CC1CC(=O)c2cnc(N3CCCCC3)nc2C1 (stereo not given)	nt	98	97	89
Cc1cc(C)cc(NS(=O)(=O)c2cn(C)cn2)c1	9	108	nt	nt
COc1ccc(CCn2c(C)nc(=O)c(-c3ccccc3)c2C)cc1OC	nt	106	84	82
CCc1nc2ccccc2n1CC(O)COc1ccccc1C (stereo not given)	-25	107	nt	nt
Cc1ccc2[nH]c(=O)c(C3CC(c4ccccc4)=NN3C(=O)CCC(=O)O)cc2c1 (stereo not given)	-14	103	nt	nt
CCNc1[nH]c(=S)nc2c1cnn2-c1ccccc1	-50	109	69	83
Fc1ccc(N2CCN(c3nccn4nc(-c5ccc(Cl)cc5)cc34)CC2)cc1	0	102	nt	nt
COc1ccccc1CNC(=O)c1ccc(-n2c(C)cc3c2CCCC3)cc1	nt	106	102	86
CCSc1nsc(SCC)c1C(=O)O	0	nt	120	95
O=S(=O)(NCc1ccccc1)c1ccc(-c2cnc(C3CC3)o2)cc1	nt	100	123	92
NC(=O)c1cn(-c2ccc(F)cc2)c(=O)c2ccccc12	-5	101	nt	nt
COC(=O)/C=C1/NC(=O)CS1	-11	nt	98	93
Fc1ccc(CNCc2cccnc2)cc1	9	nt	100	92
CCOC(=O)c1c(C)oc2nc(C)nc(N3CCN(c4ccc(OC)cc4)CC3)c12	nt	104	101	87
CCOC(=O)c1c(NC(C)=O)c2c3c(sc2n1Cc1c(C)cc(C)cc1C)CCCC3	-18	106	115	91
Cc1cc(N2CCOCC2)nc(N2CCC(C(=O)O)CC2)n1	-18	102	nt	nt
CC(=O)NC1=NN(C(C)=O)C2(S1)C(=O)N(Cc1ccccc1)c1ccccc12 (stereo not given)	1	nt	110	93
NS(=O)(=O)c1ccc(CCN[C@H]2CS(=O)(=O)C[C@@H]2S(=O)(=O)c2ccccc2)cc1	6	98	nt	nt
CN(C)C(=O)CSc1nnc(-c2cccc(F)c2)n1-c1ccccc1	1	nt	80	86
COc1ccc(Nc2c(-c3ccc(C)o3)nc3cc(C)ccn23)cc1	0	101	91	51
Next structures follow.
SMILES	HCMV NEC inh	GIV-Gai inh	Sa growth 42C	Sa growth 42C second temp
CCOc1ccc(CCNC(=O)CS(=O)Cc2nc(-c3ccc(C)cc3)oc2C)cc1OCC (stereo not given)	-26	103	85	85
CN(C)S(=O)(=O)c1cccc(CSc2nnnn2-c2ccccc2)c1	10	nt	92	93
CCCC1(C(=O)OCC)CC(CSC(=N)N)OC1=O (stereo not given)	nt	101	104	88
CCc1ccc2c(CC(=O)N3CCN(S(=O)(=O)c4cccs4)CC3)coc2c1	-10	nt	106	93
Cc1cc(Cl)ccc1OC(C)C(=O)Nc1ccc2c(c1)OCO2 (stereo not given)	-9	110	98	112
CC(C)CCNC(=O)CSc1c2c(nc3ccc(Cl)cc13)CCCC2	-33	103	109	99
CCCc1cc(=O)[nH]c(Nc2ccc(Br)cc2)n1	0	105	nt	nt
COc1ccc(S(=O)(=O)N(C)CC(=O)NCc2ccc3c(c2)OCO3)cc1	1	105	89	90
O=C(c1nn2c(c1Br)NC(c1ccco1)CC2C(F)(F)F)N1CCN(Cc2ccccc2)CC1 (stereo not given)	-15	94	nt	nt
Cc1[nH]nc2oc(=O)c(Cl)c(C)c12	-22	104	90	82
Cc1ccc(S(=O)(=O)N(C)C2CCCCC2)cc1C	2	nt	91	57
COc1ccc(N2CCN(S(C)(=O)=O)CC2)cc1	8	94	99	95
CC(C)(C)N1CC(CO)OC1c1ccccc1 (stereo not given)	0	nt	118	97
CC(C)N(C(=O)COc1ncnc2ccc(Br)cc12)c1ccccc1	-31	nt	90	88
Cc1ccc(C)c(CN2CCC(CNC(=O)Cn3ncc4c([nH]c5ccccc54)c3=O)CC2)c1	nt	106	125	96
OCC1CC=C(Cl)CC1CO (stereo not given)	-22	97	93	87
CCC(C)NCC(=O)Nc1ccc2c(c1)c1ccccc1n2CC (stereo not given)	-28	nt	120	89
COc1ccc(-c2cnc(C)o2)cc1S(=O)(=O)Nc1ccc(OC(F)(F)F)cc1	nt	97	48	39
CSc1nc2ccc3nc(NC(=O)c4ccc(S(=O)(=O)N5CCOCC5)cc4)sc3c2s1	-16	98	nt	nt
COc1ccc(NC(=O)C2CC(C)=C(C)CC2C(=O)O)c(N2CCOCC2)n1 (stereo not given)	10	103	104	94
COc1ccc(NC(=O)C2CCC(CNS(=O)(=O)c3ccc4c(c3)C(C)(C)C(=O)N4C)CC2)cc1 (stereo not given)	nt	106	103	88
CCCNC(=O)c1cc2c(=O)n3cccc(C)c3nc2s1	nt	101	84	88
COCCn1c(C)cc(/C=C(\C#N)C(=O)OCc2cc(=O)oc3cc4c(cc23)CCC4)c1C	-17	nt	91	88
COc1ccc(C(CC(=O)Nc2ccc(OC)c(OC)c2)N2Cc3ccccc3C2=O)cc1 (stereo not given)	nt	102	101	84
CCCNC(=O)Cn1c(=O)c(OCC)nc2cccnc21	2	107	nt	nt

Part of the list above, showing only HCMV NEC inh, Sa growth 42C second temp and GIV-Gai inh:
Molecule | HCMV NEC inh | Sa growth 42C second temp | GIV-Gai inh
CC1CCN(S(=O)(=O)c2cc(C(=O)NCCc3ccccc3)n(C)c2)CC1 | nt | 104 | 105
Cc1ccc(OCCn2c(=O)sc3ccccc32)cc1 | -27 | 98 | 106

Further entries
SMILES	HCMV NEC inh	GIV-Gai inh	Sa growth 42C	Sa growth 42C second temp
O=C(N1CCOCC1)C(F)(F)F	-27	nt	101	78
C=CCNC(=O)C1=Cc2cc(Br)ccc2OC=C1	-1	107	nt	nt
Cn1cnnc1Sc1ccc(Cl)cc1NC(=O)Cn1c(=O)cnc2ccccc21	-66	nt	74	99
COc1cccc(Nc2nc(C)c3nnn(-c4cccc(OC)c4)c3n2)c1	-55	111	nt	nt
CCOc1ccc(CNC(=O)CCCn2nc(C)c3c(C)n(-c4ccc(C)cc4)nc3c2=O)cc1	nt	103	104	85
Nc1nc(F)nc2c1ncn2[C@@H]1O[C@H](COP(=O)(O)O)[C@@H](O)[C@@H]1O	-16	nt	94	75
COc1cccc(/C=N/NC(=O)C2CC23CCC3)c1O (stereo not given)	-24	98	107	82
Cc1ccc(S(=O)(=O)N(C)c2nc3ccccc3nc2NCCCN(C)C)cc1	-38	nt	97	93
CCOC(=O)C1CCCN(C(=O)CCCn2nc(C)c3nn(-c4ccccc4)c(-n4cccc4)c3c2=O)C1 (stereo not given)	-27	101	nt	nt

5 of the entries above in order of the GIV-Gai inh value, high to low.
Molecule	GIV-Gai inh
COc1cccc(Nc2nc(C)c3nnn(-c4cccc(OC)c4)c3n2)c1	111
C=CCNC(=O)C1=Cc2cc(Br)ccc2OC=C1	107
CCOc1ccc(CNC(=O)CCCn2nc(C)c3c(C)n(-c4ccc(C)cc4)nc3c2=O)cc1	103
CCOC(=O)C1CCCN(C(=O)CCCn2nc(C)c3nn(-c4ccccc4)c(-n4cccc4)c3c2=O)C1 (stereo not given)	101
COc1cccc(/C=N/NC(=O)C2CC23CCC3)c1O (stereo not given)	98

Not a hit list (roughly 0.83% active in at least one column).
